Compound activity deposited in PubChem by National Center for Advancing Translational Sciences (NCATS).
TSHR ag – qHTS Assay for Agonists of the Thyroid Stimulating Hormone Receptor; HEK293-CNG-TSHR cells (CNG channel as cAMP sensor), membrane potential dye, cAMP; Thyrotropin receptor (Homo sapiens), P16473; Potency, µM (series often up to 57.1 µM), without a hit: at the highest dose activation, actives largely listed as activators; 73,000 compounds, 0.48% hits; active = well fitted activation curve of enough size with the parental cells flat; inconclusive = any curve in the parental cells; inactive = parental cells flat and receptor cells flat or falling; note: potency is the fitted concentration of half-maximal effect; % of control where 0% means no effect; weak receptor curves with flat parental cells got no call and are not listed
Target sequence (P16473 whole entry, looked up): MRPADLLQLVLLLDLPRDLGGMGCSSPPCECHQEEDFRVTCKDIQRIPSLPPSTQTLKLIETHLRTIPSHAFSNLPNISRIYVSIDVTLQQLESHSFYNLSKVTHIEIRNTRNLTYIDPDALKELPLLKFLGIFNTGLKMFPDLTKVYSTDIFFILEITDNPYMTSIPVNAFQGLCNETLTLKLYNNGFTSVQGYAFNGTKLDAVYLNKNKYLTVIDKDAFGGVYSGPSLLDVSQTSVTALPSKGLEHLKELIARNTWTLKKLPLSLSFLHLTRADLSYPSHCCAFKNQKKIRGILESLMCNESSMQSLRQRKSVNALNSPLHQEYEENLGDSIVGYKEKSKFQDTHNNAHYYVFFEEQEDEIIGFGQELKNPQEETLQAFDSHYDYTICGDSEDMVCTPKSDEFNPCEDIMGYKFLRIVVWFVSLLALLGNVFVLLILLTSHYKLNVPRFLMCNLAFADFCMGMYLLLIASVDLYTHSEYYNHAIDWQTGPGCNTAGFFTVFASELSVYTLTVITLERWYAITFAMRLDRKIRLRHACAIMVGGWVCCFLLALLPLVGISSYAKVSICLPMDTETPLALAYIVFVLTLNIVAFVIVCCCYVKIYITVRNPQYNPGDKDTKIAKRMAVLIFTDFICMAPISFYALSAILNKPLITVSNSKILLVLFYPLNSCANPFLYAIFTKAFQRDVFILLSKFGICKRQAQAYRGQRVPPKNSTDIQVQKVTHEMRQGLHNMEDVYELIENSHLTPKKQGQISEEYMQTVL
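cAMP rise detected as CNG-channel membrane depolarization by fluorescent dye (emission 590 nm), 30 min after compound, following 60 min dye loading containing 100 uM RO 20-1724 at room temperature. Cells: TSHR/CNG HEK 293, with parental CNG HEK 293 as control.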
A488 fluor – qHTS Assay for Spectroscopic Profiling in A488 Spectral Region. max dye equivalency, M. AID 591, 2007. compound autofluorescence, A488 spectral region, dye equivalency; active compounds read high. 59,000 compounds, 0.1% hits; active = above 10 nM dye equivalent; inconclusive = 1 to 10 nM; inactive = 1 nM or less; about half of its hits are not listed in these tables;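 note: highest value over a series up to 38 µM; compound alone in buffer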
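Read-out: relative fluorescence at 480/540 nm, expressed as Alexa 488 dye-equivalent concentration from a six-point A488 standard included per plate. Conditions: 100 mM Tris, pH 8.0; 15 min incubation, room temperature.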
AID923 – qHTS Assay for Allosteric/Competitive Inhibitors of Caspase-1: Spectroscopic Profiling in AFC Spectral Region. compound fluorescence, AFC spectral region (405/520 nm); almost no hit is shown here. Potency, µM (doses to about 57.5 µM), for inactives: at the highest dose fluorescence increase, usual class: activators. 75,000 compounds, 1.1% hits. AID 923, 2007; active = well fitted activation curve with a large enough effect; inconclusive = small, poorly fitted or top-dose-only effect;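 note: potency is the fitted concentration of half-maximal effect; 0% is about no effect; scaled to a free AFC standard on each plate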
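Baseline compound fluorescence (AFC region, 405 nm ex/520 nm em) taken from the intercept of kinetic reads with 50 nM caspase-1 and 5 uM Ac-WEHD-AFC; normalized to an on-plate AFC standard curve; compounds titrated up to 57 uM.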
A647 autofl – qHTS Assay for Spectroscopic Profiling in A647 Spectral Region. max dye-equivalent concentration, M. 59,000 tested, under 10 active. Compound fluorescence, A647 channel (570/671 nm), Tris buffer; active means above 1 µM dye equivalent; inconclusive means 0.1 to 1 µM; inactive means 0.1 µM or less;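 note: values scaled relative to a standard on each plate; highest value over a series up to 38 µM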
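Compounds pinned into 100 mM Tris pH 8.0, 15 min at room temperature, then read with 570 nm excitation/671 nm emission filters. Fluorescence normalized to an on-plate six-point Alexa 647 standard curve, giving dye-equivalent concentration per compound concentration.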
Resorufin autofl – qHTS Assay for Spectroscopic Profiling in Resorufin Spectral Region; Compound fluorescence, resorufin region 547/598 nm, buffer; active compounds read high; max dye-equivalent concentration, M; 59,000 compounds, 0.04% hits; active = above 10 nM dye equivalent; inconclusive = 1 to 10 nM; inactive = 1 nM or less; a few of its hits are not listed in these tables; note: highest value over a series up to 38 µM
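Compounds in 100 mM Tris buffer, pH 8.0, incubated 15 min at room temperature, then read with 547 nm excitation and 598 nm emission filters. Fluorescence was converted to dye-equivalent concentration using an on-plate six-point resorufin standard curve.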
Active calls of the source: *; i = inactive; ? = inconclusive; nt = no result given; & = joins results of further samples; [ ] = dose if it differs, or a comment. A portion of the library; count on the stated rates, not on these rows.

SMILES | TSHR ag | A488 fluor | AID923 | A647 autofl | Resorufin autofl
O=C(CCC1N=C2c3ccccc3N=C(SCc3ccccc3Cl)N2C1=O)NCc1ccco1 (stereo not given) | ? | i | 1.0% | 1.4e-08 | i
Cc1cc(C(=O)N2CCCCCC2)cs1 | 2% | i | 0.1% | 1.8e-08 | i
O=C(c1cccs1)N1CCN(C/C=C/c2ccccc2)CC1 | 5% | i | -0.4% | 6.1e-09 | i
CCCCNC(=O)N1CCOCCOCCN(C(=O)NCCCC)CCOCC1 | nt | i | nt | 9.3e-08 | i
Cn1c(=O)c2c3c(sc2n2c(SCC(=O)c4ccc(Cl)cc4)nnc12)COC(C)(C)C3 | nt | i | nt | 2.4e-08 | i
Cn1cccc1C(=O)OCC(=O)c1cc2ccccc2o1 | 2% | i | -0.5% | 1e-09 | i
Cc1cccc(CNc2cc(-c3ccc(C(=O)N(C)C)cc3)ncn2)c1 | ? | i | -2.3% | 6.5e-09 | i
O=C(CC1Oc2ccccc2NC1=O)NCCc1ccccc1 (stereo not given) | 6% | nt | -0.2% | nt | nt
COc1ccc(-c2nnc(SCC(=O)Nc3sc4c(c3C#N)CCC4)n2CC2CCCO2)cc1 (stereo not given) | ? | i | -2.6% | 3.3e-09 | i
COc1cc(C2C(C#N)=C(N)Oc3cc(C)n(CC4CCCO4)c(=O)c32)cc2c1OCO2 (stereo not given) | 0% | i | 5.0% | 1e-08 | i
O=C(O)[C@H]1C[C@H](C(=O)O)N1 | ? | i | -0.3% | 3.3e-08&2.5e-08 | i
O=c1/c(=C\c2ccc3c(c2)OCO3)sc2n1CCCN=2 | 5% | i | 1.6% | 2.5e-08 | i
Nc1nnc(-c2ccccc2Cl)s1 | -3% | i | 0.3% | 7.7e-09 | i
CC(=O)Nc1cccc(NC(=O)CSc2ncc(-c3ccc(Cl)cc3)n2Cc2ccco2)c1 | ? | i | 1.4% | 2.7e-08 | i
Cc1cc2cc(CN(Cc3nnnn3C3CCCCC3)CC3CCCO3)c(=O)[nH]c2cc1C (stereo not given) | ? | i | 4.6% | 1e-09 | i
c1ccc(-c2oc3ncnc(NCCCn4ccnc4)c3c2-c2ccccc2)cc1 | ? | i | 2.2% | 5.2e-09 | i
CCN(CC)P(=O)(/C(Cl)=C\Nc1c(C)n(C)n(-c2ccccc2)c1=O)N(CC)CC | 10% | i | 3.2% | 8.2e-09 | i
N=C1CCC[C@@H]1C(=S)SCCC(N)=O | -3%[11.4 µM] | i | 4.5%[11.5 µM] | 1e-09 | i
CCn1c(SCC(=O)c2ccc3c(c2)OCCO3)nnc1-c1ccco1 | 10% | i | 0.0% | 4.8e-08 | i
CC(C)N(CCC(=O)c1ccc2ccccc2c1)Cc1ccccc1 | 16%&6% | i | -1.0%&-1.6% | 2.9e-09 | i
O=C(Cn1c(=O)n(-c2ccc(F)cc2)c(=O)c2sccc21)N1CCCC1 | 4% | i | -0.6% | 1.7e-09 | i
CC1=CC(C)(C)N(C(=O)CSc2nccn2C)c2cc(C)ccc21 | ? | nt | -0.6% | nt | nt
COc1ccc(C(C)(C)C)cc1NC(=O)Nc1ccc2c(c1)OCO2 | -17% | i | -1.9% | 1e-09 | i
O=C(Nc1ccccc1NC(=O)NC1CCCCC1)NC1CCCCC1 | 2% | i | -1.3% | 3.1e-08 | i
CCOC(=O)c1c(CN2CCCCC2)n(C)c2cc(Br)c(O)c(CN(C)C)c12 | -2% | nt | 0.0% | nt | nt

Structures listed so far with an aryl methoxy group:
SMILES | TSHR ag | A488 fluor | AID923 | A647 autofl | Resorufin autofl
COc1ccc(-c2nnc(SCC(=O)Nc3sc4c(c3C#N)CCC4)n2CC2CCCO2)cc1 (stereo not given) | ? | i | -2.6% | 3.3e-09 | i
COc1cc(C2C(C#N)=C(N)Oc3cc(C)n(CC4CCCO4)c(=O)c32)cc2c1OCO2 (stereo not given) | 0% | i | 5.0% | 1e-08 | i
COc1ccc(C(C)(C)C)cc1NC(=O)Nc1ccc2c(c1)OCO2 | -17% | i | -1.9% | 1e-09 | i

(continued)
SMILES | TSHR ag | A488 fluor | AID923 | A647 autofl | Resorufin autofl
Cc1ccc(-c2c3c([nH]c(=S)c2C#N)CCCC3)o1 | 1% | nt | -0.6% | nt | nt
O=C(CN(Cc1ccc(F)cc1)C(=O)Cn1nnc2ccccc21)NCC1CCCO1 (stereo not given) | 10%[11.4 µM] | i | -0.6% | 1e-09 | i
COc1ccc(S(=O)(=O)N2CCCC(C(=O)NC3CCCCC3)C2)cc1 (stereo not given) | ? | i | -0.7% | 1.6e-08 | i
CCc1ccccc1S(=O)(=O)Cc1ccc(C(=O)NCc2ccc3c(c2)OCO3)o1 | 23% | nt | 1.0% | nt | nt
O=C(Nc1ccc2nc(-c3cccnc3)[nH]c2c1)c1ccco1 | -8% | nt | -0.3% | nt | nt
CS(=O)(=O)N(CC(=O)N1CCCC1)c1cccc(Cl)c1Cl | -7%[11.4 µM] | nt | -2.9% | nt | nt
CN1CCN(c2ncnc3ccc(-c4ccccc4Cl)cc23)CC1 | ? | i | -0.6% | 3.6e-08 | i
CCCCNC(=O)CCSc1nc2nc(C)cc(C)n2n1 | 1% | i | 0.2% | 3.8e-08 | i
N#CC(CC(=O)O)=C(c1ccccc1)c1ccccc1 | 6%[11.4 µM] | i | 1.0%[11.5 µM] | 3.8e-08 | i
COc1ccc(N2C(=O)C3CCCN3C2c2ccccc2)cc1 (stereo not given) | 3% | nt | 0.2% | nt | nt
Cc1c(NC(=O)c2cccc(F)c2)c(=O)n(-c2ccccc2)n1C | ? | i | -0.3% | 1e-09 | i
CN(C)CCC=C1c2ccccc2C=Cc2ccccc21 | ? | i | 1.5%[11.5 µM] | 4.9e-09&1e-09&4.7e-09 | i
COc1ccc(OC)c(NC(=O)C2CCN(c3nc(C)cc(C)n3)CC2)c1 | 0% | i | 0.2% | 1e-09 | i
Cc1cc(C(=O)Nc2ccccn2)cs1 | -3% | i | -4.1% | 1.3e-08 | i
O=C(COc1ncnc2ccccc12)N1CCN(S(=O)(=O)c2ccccc2)CC1 | 2% | i | -1.0% | 1.2e-09 | i
O=C(O)CCC(=O)NCc1ccc2[nH]c3c(c2c1)CCCC3 | 1% | nt | 8.1% | nt | nt
CSc1ccc(-c2c(C#N)c(N)nc3c2CCCC3)cc1 | nt | i | -3.8% | 4.6e-08 | i
CC1=C(C(N)=O)C(c2ccccc2)n2nc(-c3cccs3)nc2N1 (stereo not given) | -2% | nt | 1.0% | nt | nt
CCOC(=O)c1ccc(N2C(=O)C(C)=C(C)C2=O)cc1 | -1% | i | -2.1% | 2.4e-09 | i
CC(C)N(Cc1ccccc1)C(=O)c1cnc2n(c1=O)CCS2 | -5% | nt | 0.5% | nt | nt
O=C1c2ccccc2C(=O)N1Cc1ccco1 | -1% | i | -1.4% | 1.7e-08 | i
CC(Oc1ccc(Cl)cc1)C(=O)Nc1nccs1 (stereo not given) | 8% | nt | 1.6% | nt | nt
CCCCNC(=O)Nc1ccnn1C1CCCCC1 | 6% | i | -0.8% | 4.5e-09 | i
NCCCCNS(=O)(=O)c1ccc2c(Cl)cccc2c1 | 15% | nt | -0.1% | nt | nt
CCCN(CCC(=O)Nc1cc(OC)cc(OC)c1)CC1CC1 | -6% | i | 1.4% | 2.3e-09 | i
SMILES | TSHR ag | A488 fluor | AID923 | A647 autofl | Resorufin autofl
CCOC(=O)c1c(-c2cccs2)csc1NC(=O)c1ccncc1 | nt | i | nt | 1e-09 | i
O=C(Cn1c(=O)sc2ccccc21)Nc1ccccc1C(=O)O | 4% | i | 2.2% | 6.9e-08 | i
Cc1ccnc(Sc2nc3c(c(=O)[nH]c(=O)n3C)n2CCCc2ccccc2)n1 | 5% | i | 2.0% | 1e-09 | i
CCn1c(SCC(=O)NCC(=O)Nc2ccc(F)cc2)nnc1-c1cccs1 | 0%[11.4 µM] | i | -1.5% | 1.2e-09 | i
CCS(=O)(=O)NCc1cn2c(C)csc2n1 | 18%[11.4 µM] | i | -0.6% | 2e-08 | i
CCC(=O)N1CCc2cc(Br)cc(S(=O)(=O)N3CCN(c4ccccn4)CC3)c21 | 2%[11.4 µM] | i | 0.4% | 1e-09 | i
COc1ccc(OC)c(NC2c3ncccc3C(=O)N2Cc2ccco2)c1 (stereo not given) | nt | i | -0.3% | 1e-09 | i
COC(=O)COC(=O)c1ccc(-n2nnnc2SC)cc1 | ? | i | 2.7% | 7.9e-09 | i
CCN(CC)CCNC(=O)NC1CCCCC1 | 8%[11.4 µM] | nt | -0.2% | nt | nt
O=C(CCn1c(=O)c2sccc2n(CC(=O)NCc2ccco2)c1=O)NCc1ccccc1 | 0% | i | 1.2% | 1.5e-08 | i
CCOC(=O)c1[nH]c(Cc2[nH]c(C(=O)OCC)c(C)c2CCC(=O)OC)c(CCC(=O)OC)c1C | ? | nt | 1.3% | nt | nt
COc1cccc(C(=O)NC2CCSC2=O)c1 (stereo not given) | -4% | i | 0.8% | 1.7e-08 | i
Cc1cc(C)cc(N(CC(=O)N2CCN(c3ccccc3)CC2)S(=O)(=O)c2c(C)noc2C)c1 | 28% | nt | -1.4% | nt | nt
CN(C(=O)c1ccccn1)c1nnc(-c2cnccn2)s1 | -3% | i | 1.7% | 1e-09 | i
CC12COC3(C(=O)Nc4ccc(Cl)cn4)CC1CCC32C (stereo not given) | 9% | nt | -0.3% | nt | nt
CSc1nc(-c2ccco2)nn1S(C)(=O)=O | 4% | i | -3.4% | 1e-09 | i
CCOC(=O)N1CCC(n2c(SCC(=O)NCCC3=CCCCC3)nc3ccccc3c2=O)CC1 | ? | i | 0.7% | 2.7e-08 | i
COC(=O)CN1C(=O)C(C)=C(c2ccc(C)cc2)S1(=O)=O | 0% | nt | 2.1% | nt | nt
Nc1csnc1C(=O)O | -1% | i | -0.1% | 4.2e-09 | i
CCCCNC(=O)C(c1ccc(-c2ccccc2)cc1)N(CCN1CCOCC1)C(=O)CCCCCN1C(=O)NC(c2ccc([N+](=O)[O-])cc2)C(C(=O)OCc2ccccc2)=C1C (stereo not given) | -13% | nt | -1.1% | nt | nt
CCCCNc1nc(C)nc2c1nc(-c1ccccc1)n2CC(C)(C)CN(C)C | ? | nt | 1.9% | nt | nt
CCOC(=O)c1oc2ccccc2c1CSc1nnnn1-c1ccccc1 | ? | i | 0.3% | 1e-09 | i
C=CCn1c(SCc2c(C)noc2C)nc2sc3c(c2c1=O)CCCCC3 | 15% | i | -0.4% | 1.1e-09 | i
Cc1nn(Cc2ccccc2Cl)c(C)c1C(=O)Nc1nnc(C2CC2)s1 | 1% | i | -1.9% | 1.5e-09 | i
C[C@]12CC[C@@H]3c4ccc(OC(=O)c5ccccc5)cc4CC[C@H]3[C@@H]1CC[C@@H]2O | nt | i | nt | 1e-09 | i
SMILES | TSHR ag | A488 fluor | AID923 | A647 autofl | Resorufin autofl
CCOC(=O)N1CCN(CC(O)c2ccc3c(c2)CCN3)CC1 (stereo not given) | -34%[inhibitor] | i | 6.0% | 3.9e-09 | i
Cc1ccc(OCCCC(=O)Nc2ccc3c(c2)OCO3)cc1 | 5%[11.4 µM] | nt | -2.4% | nt | nt
c1nc(NC2CCCCC2)c2[nH]cnc2n1 | nt | i | nt | 4.1e-09 | i
CC1Oc2ccccc2C=C1C1/C(=C(/O)c2ccccc2)C(=O)C(=O)N1CCCN(C)C (stereo not given) | 13% | nt | 2.8% | nt | nt
O=C(Nc1cccnc1)Nc1ccc2c(c1)OCO2 | 2% | i | -1.6% | 1e-09 | i
Nc1nonc1-c1nc2ccccc2n1CCC(=O)O | -1%[11.4 µM] | i | -0.5% | 2.5e-09 | i
CCC(=O)N1c2ccc(S(=O)(=O)CCC(=O)N3CCn4c3nc3ccccc34)cc2CC1C (stereo not given) | 2% | i | -0.4% | 6.9e-09 | i
